Bioassay records deposited in PubChem BioAssay by several laboratories.
Mtb bLac sens: beta-lactam sensitization of Mtb H37Rv, H37Rv; M. tuberculosis H37Rv growth with meropenem, percent inhibition; hits of this screen are not shown here; inhibition, % at 25 µM; actives 0.27% (n = 330,000);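 active = about 74% or more and at least 40 points above the plate without the antibiotic, then above 30% in a dose series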;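 also: growth measured after seven days incubation then overnight dye step; 0% = bacteria only wells and 100% = bacteria with antibiotic; twin plates without the antibiotic show which effects depend on it; some results filed as inactive read as strong as hits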
Mtb H37Rv: M. tuberculosis H37Rv growth inhibitors, H37Rv strain (AID 1626); one-dose inhibition, % at 10 µM; IC50 in µM for titrated hits; actives 0.95% (n = 220,000); M. tuberculosis H37Rv growth inhibition; higher % means a stronger effect;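 active = confirmed in a dose series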;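 also: bacteria incubated seven days before Alamar blue readout; 0% = bacteria only wells and 100% = bacteria with antibiotic wells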
Arbovirus inh: antivirals against arbovirus infection, primary screen, cell-based, full library, 10K replicate subset. actives 0.37% (n = 200,000). inhibition, % at 10 µM. arbovirus infection cell-based antiviral screen;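 active = inhibition from about 30%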;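 also: bluetongue infection of BSR cells; cell survival read as ATP light after 72 h; 0% = infected wells without compound and 100% = uninfected wells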
RecA splice inh: Mtb RecA intein splicing inhibitors, primary screen, biochemical, fluorescence, HTS | Protein RecA (Mycobacterium tuberculosis (strain ATCC 25618 / H37Rv)), P9WHJ3 | cell-free RecA intein splicing | inhibition, %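 (about 9 µM by stock and volumes)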 | actives 0.75% (n = 290,000); in the data active = inhibition above about 30%;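 also: 0% = vehicle wells and 100% = reference inhibitor control wells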
Target sequence (P9WHJ3 whole entry, looked up, canonical isoform): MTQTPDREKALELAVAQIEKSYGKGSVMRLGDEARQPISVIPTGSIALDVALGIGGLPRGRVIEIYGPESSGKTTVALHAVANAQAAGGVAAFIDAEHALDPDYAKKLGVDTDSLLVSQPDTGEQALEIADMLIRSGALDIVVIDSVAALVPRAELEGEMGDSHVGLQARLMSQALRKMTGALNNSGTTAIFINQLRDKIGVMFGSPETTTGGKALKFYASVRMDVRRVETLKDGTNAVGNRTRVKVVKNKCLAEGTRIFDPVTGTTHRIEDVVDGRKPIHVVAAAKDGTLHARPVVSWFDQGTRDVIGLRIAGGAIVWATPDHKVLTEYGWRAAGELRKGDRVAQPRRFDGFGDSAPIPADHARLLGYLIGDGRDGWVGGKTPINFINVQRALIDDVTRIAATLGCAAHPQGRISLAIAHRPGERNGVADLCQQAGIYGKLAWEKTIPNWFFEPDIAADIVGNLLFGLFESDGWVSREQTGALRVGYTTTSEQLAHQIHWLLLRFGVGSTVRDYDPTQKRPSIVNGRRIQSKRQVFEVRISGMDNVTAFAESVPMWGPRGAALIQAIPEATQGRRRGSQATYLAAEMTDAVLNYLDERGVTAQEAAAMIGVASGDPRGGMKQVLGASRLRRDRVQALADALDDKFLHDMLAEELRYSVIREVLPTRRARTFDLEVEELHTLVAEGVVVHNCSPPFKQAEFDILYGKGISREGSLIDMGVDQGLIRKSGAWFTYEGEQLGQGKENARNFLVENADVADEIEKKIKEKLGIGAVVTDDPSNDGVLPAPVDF
YopH PTP inh: YopH tyrosine phosphatase inhibitors, primary screen, biochemical, fluorescence Ex485/Em525. YopH tyrosine phosphatase [Yersinia enterocolitica]. actives 0.16% (n = 140,000). inhibition, %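 (about 10 µM by stock and volumes)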;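 active = inhibition of 50% or more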;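 also: controls were vehicle for no effect and minimum signal wells for full effect; inactives centre near -20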
Arbovirus inh repeat: further read-out of Arbovirus inh, marked with its call; inhibition, %; measured here: 10K subset replicate screen; many hits read low in the repeat;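 first of two repeat runs on a subset; 0% = infected and 100% = uninfected wells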
* marks the source's active call; other numbers are inactive results; nt = no result given. The list is partial; the hit share may differ from the screen's.

SMILES | Mtb bLac sens | Mtb H37Rv | Arbovirus inh | RecA splice inh | YopH PTP inh | others
Cn1cc(C(c2ccccn2)c2cn(C)c3ccccc23)c2ccccc21 | -3 | -3% | -16 | 0.4 | -29
C/C=C(\C)CN1CCN(c2cccc(C)c2C)CC1 | 7 | 8% | -1 | 1.4 | 9
CCN(c1ccc(OC)cc1)S(=O)(=O)c1ccc2c(c1)CC(C)N2C(=O)C1CC1 (stereo unspecified) | 4 | nt | nt | 1.3 | nt
CCNc1nc(NCC)nc(C(=O)Nc2ccccc2)n1 | 16 | -7% | -3 | -2.0 | 5
CCOc1ccc(NC(=O)Nc2c(C)n(C)n(-c3ccccc3)c2=O)cc1 | -1 | nt | nt | 0.2 | nt
Cc1cc(=O)[nH]c(SCC(=O)NC(c2ccccc2)c2ccccc2)n1 | -15 | -3% | 5 | nt | nt
O=C(Nc1cccc2ncccc12)c1ccc(F)cc1 | -6 | 4% | -3 | -3.6 | -10
O=C(NNC(=S)NC(=O)c1ccccc1)c1cccnc1 | 83 | nt | nt | -4.3 | nt
Cc1cccc(/C=N/n2c(C)nc3ccccc3c2=O)c1 | 5 | nt | nt | 0.0 | nt
CC(=O)Nc1ccc(C(=O)OCC(=O)Nc2ccc([N+](=O)[O-])cc2C(F)(F)F)cc1 | 0 | -3% | 7 | -1.0 | -16
Cc1cc(OCc2cc(C(=O)N3CCN(CC4CC4)CC3)no2)cc(C)c1Cl | 91 | nt | nt | 2.6 | nt
CCOc1ccc(N2C(=O)Nc3ccc(Br)cc3C2(O)C(=O)NCCN(C)C)cc1 (stereo unspecified) | -1 | nt | nt | -1.0 | nt
O=C(CSc1n[nH]c(-c2ccco2)n1)Nc1sc2c(c1C(=O)Nc1ccccc1)CCCC2 | 12 | -3% | -2 | 3.0 | 34
CN1CCc2c(OCC(=O)NC3CCCCC3)cccc2C1=O | -3 | nt | nt | -2.0 | nt
O=C1Nc2cc(Cl)ccc2Nc2cscc21 | -3 | -8% | nt | 2.4 | nt
CCC(C)N(C(=O)Cn1nnc2ccccc21)C(C(=O)NCc1ccco1)c1cccc(OC)c1 (stereo unspecified) | -9 | 3% | -2 | 0.5 | -15
CCCCCN(C(=O)NC(=O)Nc1cccc(C)c1C)S(C)(=O)=O | 5 | 5% | 4 | 4.0 | nt
CN(CC(=O)Nc1ncn[nH]1)S(=O)(=O)c1cc(Cl)ccc1Cl | 1 | nt | nt | -5.8 | nt
C=CCc1c(C)nc(C)nc1N/N=C/c1ccc([N+](=O)[O-])cc1 | -9 | 6% | 16 | 2.5 | -14
O=c1cc(Nc2ccc3c(c2)OCCO3)[nH]c(=O)n1-c1ccc(Cl)cc1 | 2 | 1% | -7 | -0.7 | -23
CC(C)N(Cc1nc(-c2ccccc2)no1)S(=O)(=O)c1ccccc1 | 5 | 11% | 6 | 5.7 | -6 | Arbovirus inh repeat=9
CCC(C(=O)NNC(=O)c1cnccn1)c1ccccc1 (stereo unspecified) | 12 | -1% | -8 | 1.9 | -31
Nc1sc2c(c1C(=O)NC1CCS(=O)(=O)C1)CCCC2 (stereo unspecified) | -4 | -1% | 4 | -2.9 | -36 | Arbovirus inh repeat=1
CC(=O)c1ccc(N(CC(=O)NC2CCCC2)C(=O)c2csnn2)cc1 | 4 | nt | nt | -0.3 | nt
CCCCOC(=O)c1ccc(NC(=O)COC(=O)CN2C(=O)NC3(CCCC3)C2=O)cc1 | 73 | nt | nt | -1.6 | nt
CC(=O)Nc1ccc(-n2cnnn2)cc1 | -1 | -6% | 6 | 0.3 | -13
CCn1c(=O)c(C(=O)NCCc2ccc(Cl)cc2)c(O)c2ccccc21 | 1 | nt | nt | 0.7 | nt
COc1ccc(C)cc1N(C(=O)c1ccccc1F)c1nc2ccccc2s1 | 4 | 7% | -7 | 4.8 | -17
CCCN(CCC)C(=O)c1cc([N+](=O)[O-])cc2c1-c1ccc([N+](=O)[O-])cc1C2=C(C#N)C#N | 59 | 8µM* | nt | -2.4 | nt
C=CCn1c(CNC(=O)c2ccco2)nnc1SCC(=O)c1ccc(OC)cc1 | -3 | 2% | 2 | 0.9 | nt
CCCC(CCC)n1[nH]c(=O)c2c(C)cc(C)nc21 | 10 | 13% | -2 | -1.6 | 24
COc1cc(CNc2ccc(N3CCOCC3)cc2)ccc1OCC(=O)NC(C)(C)C | -1 | nt | nt | -3.8 | nt
Nc1[nH]n(-c2ccccc2)c(=O)c1N=Nc1ccc2c(c1)OCO2 | 18 | 1% | nt | 2.1 | nt
O=[N+]([O-])c1cccc(N=Cc2sc3ccccc3c2O)c1 | 4 | 1% | 0 | 0.0 | nt
Cc1ccc(SCc2noc(C(=O)NCC3CCCO3)c2C(=O)O)cc1C (stereo unspecified) | 2 | -12% | 10 | -2.9 | -8
COc1cc(C(=O)Nc2cc(-c3cn4cccnc4n3)ccc2C)cc(OC)c1OC | -7 | -3% | -4 | -2.0 | nt
COC(=O)c1cc(S(=O)(=O)NCc2cccc(Br)c2)c[nH]1 | 5 | nt | nt | 2.8 | nt
CC(C)Oc1ccc(OCCn2c(=S)[nH]c3c(N)ncnc32)cc1 | -3 | -7% | -8 | -1.5 | nt
O=C(Nc1nccs1)c1ccc(-c2ccc(F)c(Cl)c2)o1 | 94 | nt | nt | 1.6 | nt
O=C(O)Cn1c(SCCOc2ccc(Cl)cc2)nc2ccccc21 | -2 | nt | nt | 2.0 | nt
Cc1ccc2nc(-c3ccccc3)cc(C(=O)O)c2c1 | -19 | 6% | 2 | nt | -49 | Arbovirus inh repeat=0
CC(Sc1nccn1C)C(=O)Nc1ccc(Cl)cn1 (stereo unspecified) | -13 | nt | nt | -0.5 | nt
CC(C)Cc1nnc(NC(=O)CN2C(=O)NC3(CCCCC3)C2=O)s1 | 0 | nt | nt | -1.9 | nt
O=C1N[C@@H](Cc2ccccc2)C(=O)N2[C@H]1C[C@]1([C@]34C[C@H]5C(=O)N[C@@H](Cc6ccccc6)C(=O)N5[C@H]3N(S(=O)(=O)c3ccccc3)c3ccccc34)c3ccccc3N(S(=O)(=O)c3ccccc3)[C@H]21 | -10 | nt | nt | 0.7 | nt
CC1(C)CC(=O)C2=C(C1)Oc1ncn(CCCO)c(=N)c1C2c1ccccc1 (stereo unspecified) | 0 | -4% | 5 | 16 | -42
CCOC(=O)C1=C(C)N=C2SCCC(=O)N2C1c1ccc(C(=O)OC)cc1 (stereo unspecified) | -6 | -9% | 1 | -2.6 | 9
CCS(=O)(=O)N1CCC(C(=O)NCCCN2CCN(c3ccccc3F)CC2)CC1 | -9 | -8% | -1 | -0.5 | -25
S=c1[nH]nc(COc2ccccc2)n1/N=C/c1ccc(Cl)cc1 | 7 | nt | nt | -1.3 | nt
CCOC(=O)c1c(NC(=O)CCN2CCOCC2)sc2c1CC(C)(C)OC2 | 2 | 5% | 5 | 0.1 | -34
CCOC(=O)Nc1ccc2c(c1)N(C(=O)OC)c1ccccc1CC2 | -4 | -1% | -17 | -1.7 | -46
Next structures:
SMILES | Mtb bLac sens | Mtb H37Rv | Arbovirus inh | RecA splice inh | YopH PTP inh | others
COc1ccc(Nc2cc(Cl)nc(N)n2)cc1 | 5 | -2% | 5 | -2.0 | nt
COC(=O)CN1CC(=O)N(c2ccccc2)C1=S | -8 | 6% | 2 | 1.5 | nt
Cc1ccc(-n2c(Cc3cccn3C)nnc2SCC(=O)Nc2nnc(C)s2)cc1 | nt | 0% | -3 | -0.1 | -45
COC(=O)CNC(=O)CCc1nnc(C2(c3ccc(Cl)cc3)CCC2)o1 | -1 | -9% | 0 | -2.7 | nt
CCN1C(=O)[C@H]2[C@@H](c3ccc(OC)cc3)N3C(=O)CN(CCOC)C(=O)[C@@]3(C)[C@H]2C1=O | -2 | nt | nt | -6.4 | nt
C/C=C/C(=O)OCC(=O)Nc1cccc(S(=O)(=O)NC2=NCCCCC2)c1 | -12 | -4% | 11 | 0.3 | nt
Cc1cc(=O)oc2c(CN3CCN(C)CC3)c(O)c(Cl)cc12 | 0 | nt | 7 | -2.9 | -39
COc1ccccc1N1CCN(CC(O)COc2ccc3c(c2)OCO3)CC1 (stereo unspecified) | 2 | -2% | -4 | -0.6 | nt
O=S(=O)(Nn1cnnc1)c1ccccc1 | -12 | -7% | 2 | 3.1 | -14
O=C(CSc1nnc(-c2ccco2)c(-c2ccco2)n1)c1ccccc1 | 0 | 4% | -8 | 16 | nt
CN(c1ccccc1)c1nc(N)c([N+](=O)[O-])c(Nc2ccccc2F)n1 | 6 | nt | nt | 1.9 | nt
CC(=O)c1sc(N/N=C2\CC3CCC2(C)C3(C)C)nc1C (stereo unspecified) | 5 | -3% | 4 | 1.5 | nt
O=C(N/N=C/c1cccnc1)c1ccccc1NS(=O)(=O)c1cccs1 | 5 | 0% | 7 | -2.0 | nt
O=C(Nc1ccccc1C(F)(F)F)c1cc2ncc(CCCl)cn2n1 | 3 | 3% | 1 | -0.9 | -30
Cc1ccc(C(=O)NCCSc2snnc2C)cc1 | -9 | -3% | -4 | -7.9 | -12
CCOc1cc(C)ccc1OCc1nnc(SCC(=O)c2cccc([N+](=O)[O-])c2)n1CC | 7 | 0% | 4 | -2.9 | -49
Cc1ccc(NC(=O)c2ccc(NS(=O)(=O)/C=C/c3ccccc3)cc2)nc1 | 84 | nt | nt | 1.4 | nt
O=C(NCCCCc1ccccc1)c1cccc(Br)c1 | 3 | nt | nt | 1.8 | nt
NC(=O)CC(NC(=O)Cc1cccc2ccccc12)c1ccc(NCCc2cccc(F)c2)c([N+](=O)[O-])c1 (stereo unspecified) | -13 | -2% | nt | -3.8 | nt
Cc1ccc(S(=O)(=O)N2CCC(C(=O)OCCOc3ccccc3)CC2)cc1C | 47 | nt | nt | 3.1 | nt
CCN(CCCNC(=O)CCNC(=O)Cn1cnc2ccccc2c1=O)c1ccccc1 | -12 | 0% | 13 | -6.8 | -30
COc1ccc(C(=O)COC(=O)c2cccc(-n3cnnn3)c2)c(OC)c1 | -6 | nt | nt | -0.1 | nt
COCCOC(=O)c1c(C)oc2ccc(NS(=O)(=O)c3ccc(F)cc3)cc12 | 0 | 7% | nt | -5.2 | nt
COC(C/C=C\C(=O)[C@H](C)OCc1ccccc1)OC | 73 | -6% | nt | -0.9 | nt
CC(=O)c1c(C)[nH]c(C(=O)OCC(=O)N2CCc3ccccc32)c1C | -3 | 1% | -4 | 0.2 | -73
C=CCn1c(SCC(=O)Nc2ccc(C(=O)OCC)cc2)nnc1-c1cccs1 | -5 | 5% | -7 | 1.3 | -19
CCS(=O)(=O)/N=C(\N)c1ccccc1 | -2 | -6% | 2 | -0.1 | -5
Cc1ccc(NC(=O)CN(C)C(=O)c2ccc(Cl)c([N+](=O)[O-])c2)cc1 | -4 | -7% | -8 | 0.2 | -13
Cc1ccccc1NC(=O)C(C)OC(=O)CNS(=O)(=O)c1ccc(C#N)cc1 (stereo unspecified) | -6 | nt | nt | -2.4 | nt
COc1ccc(S(=O)(=O)c2cnc3ccc(OC)cc3c2N2CCC3(CC2)OCCO3)cc1 | 71 | 9% | -12 | 2.3 | -21

Already shown: an excerpt of the list.
SMILES | Mtb bLac sens | Mtb H37Rv | Arbovirus inh | RecA splice inh | YopH PTP inh | others
Cc1ccc(NC(=O)CN(C)C(=O)c2ccc(Cl)c([N+](=O)[O-])c2)cc1 | -4 | -7% | -8 | 0.2 | -13
Cc1ccccc1NC(=O)C(C)OC(=O)CNS(=O)(=O)c1ccc(C#N)cc1 (stereo unspecified) | -6 | nt | nt | -2.4 | nt
COc1ccc(S(=O)(=O)c2cnc3ccc(OC)cc3c2N2CCC3(CC2)OCCO3)cc1 | 71 | 9% | -12 | 2.3 | -21

The listing continues.
SMILES | Mtb bLac sens | Mtb H37Rv | Arbovirus inh | RecA splice inh | YopH PTP inh | others
CCN(CC)CC#CC(O)(c1ccccc1)c1ccccc1 | 0 | -2% | 7 | 1.3 | nt
CCN1CCN(C(=O)CS(=O)(=O)Cc2nc(-c3cccc(OC)c3)oc2C)CC1 | -6 | nt | nt | -0.7 | nt
O=C(N[C@@H](Cc1ccc(Br)cc1)C(=O)O)OCC1c2ccccc2-c2ccccc21 | -1 | nt | nt | 1.8 | nt
C/C(N)=C(/C#N)C(=O)CSc1nnc(Nc2cccc(C)c2C)s1 | 0 | 3% | 2 | 1.8 | -26
COCCCNc1nc2c(-c3cccc(C(F)(F)F)c3)nnn2c2ccccc12 | -2 | -4% | -2 | -25 | nt
COc1ccc(CNc2nc3ccccc3n2Cc2ccc(C)cc2)cc1OC | 7 | 5% | -29 | -4.4 | -22
O=C(NC(=S)Nc1ccc2[nH]c(=O)[nH]c2c1)c1ccccc1[N+](=O)[O-] | 0 | nt | nt | 2.4 | nt
CCOc1ccc(C2(C)CC(=O)N(C)C2=O)cc1 (stereo unspecified) | -1 | nt | nt | -0.3 | nt
